# Source: PubChem BioAssay
# Arbovirus inh – blocks arbovirus infection; arbovirus infection cell-based antiviral screen; AID 1251; inhibition, % at 10 µM; hit rate 0.37% among 200,000;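 active = inhibition from about 30%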;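 note: bluetongue infection of BSR cells; cell survival read as ATP light after 72 h; 0% = infected wells without compound and 100% = uninfected wells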
# Mtb H37Rv – M. tuberculosis H37Rv growth inhibitors, H37Rv strain (AID 1626) | M. tuberculosis H37Rv growth inhibition; higher % means a stronger effect | one-dose inhibition, % at 10 µM; IC50 in µM for titrated hits | hit rate 0.95% among 220,000;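 active = confirmed in a dose series; inconclusive = inhibition above 80% but not taken into the dose series; inactive = below 80% or under 30% at every dose of the series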;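 note: bacteria incubated seven days before Alamar blue readout; 0% = bacteria only wells and 100% = bacteria with antibiotic wells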
# Mtb betalactam – beta-lactam sensitization of Mtb H37Rv. inhibition, % at 25 µM. M. tuberculosis H37Rv growth with meropenem, percent inhibition; hits of this screen are not shown here. hit rate 0.27% among 330,000;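 active = about 74% or more and at least 40 points above the plate without the antibiotic, then above 30% in a dose series; inconclusive = first-round hits that could not be retested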;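 note: growth measured after seven days incubation then overnight dye step; 0% = bacteria only wells and 100% = bacteria with antibiotic; twin plates without the antibiotic show which effects depend on it; some results filed as inactive read as strong as hits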
# YopH inh – inhibitors of Yersinia enterocolitica YopH tyrosine phosphatase | fluorescence Ex485/Em525 | inhibition, %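 (about 10 µM by stock and volumes)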 | hit rate 0.16% among 140,000 | AID 898;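 active = inhibition of 50% or more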;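 note: controls were vehicle for no effect and minimum signal wells for full effect; inactives centre near -20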
# RecA intein inh – Mtb RecA intein splicing inhibition; P9WHJ3; cell-free RecA intein splicing, fluorescence; inhibition, %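 (about 9 µM by stock and volumes)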; hit rate 0.75% among 290,000; in the data active = inhibition above about 30%; inconclusive = no clear call, values can overlap the other calls;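 note: 0% = vehicle wells and 100% = reference inhibitor control wells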
# Target sequence (P9WHJ3 whole entry, looked up): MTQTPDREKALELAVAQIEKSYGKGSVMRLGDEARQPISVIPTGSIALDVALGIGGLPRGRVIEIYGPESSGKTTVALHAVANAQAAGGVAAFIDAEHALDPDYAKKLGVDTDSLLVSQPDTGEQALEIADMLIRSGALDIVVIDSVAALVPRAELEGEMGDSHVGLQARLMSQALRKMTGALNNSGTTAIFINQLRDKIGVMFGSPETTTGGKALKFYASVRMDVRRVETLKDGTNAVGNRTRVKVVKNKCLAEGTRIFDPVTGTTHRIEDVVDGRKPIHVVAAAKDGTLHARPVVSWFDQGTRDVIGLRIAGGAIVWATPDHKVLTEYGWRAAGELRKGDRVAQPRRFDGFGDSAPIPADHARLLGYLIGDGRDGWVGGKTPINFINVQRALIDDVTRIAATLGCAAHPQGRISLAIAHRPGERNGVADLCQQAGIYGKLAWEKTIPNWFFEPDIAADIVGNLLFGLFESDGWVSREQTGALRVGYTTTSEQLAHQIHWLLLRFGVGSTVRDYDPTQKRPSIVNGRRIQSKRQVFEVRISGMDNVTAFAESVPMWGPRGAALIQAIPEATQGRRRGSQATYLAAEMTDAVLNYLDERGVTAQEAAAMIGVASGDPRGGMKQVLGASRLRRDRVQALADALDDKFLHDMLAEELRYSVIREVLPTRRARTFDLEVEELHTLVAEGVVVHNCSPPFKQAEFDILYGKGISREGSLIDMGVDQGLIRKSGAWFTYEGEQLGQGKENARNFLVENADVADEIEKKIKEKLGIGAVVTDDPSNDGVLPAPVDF
# * = called active by the depositor; u = inconclusive; x = no result given; & = joins results of further samples.
1: COc1ccc(-n2nc(C(=O)NCC(=O)NCC3COc4ccccc4O3)c3ccccc3c2=O)cc1OC (configuration not stated)
2: Cc1ccc2cc(CN(Cc3cccs3)Cc3nnnn3CC3CCCO3)c(=O)[nH]c2c1 (configuration not stated)
3: Cc1ccc(SCC(=O)Nc2cccnc2)cc1
4: Cc1cc(CN(C)C(=O)CC2C(=O)NCCN2CC(c2ccccc2)c2ccccc2)on1 (configuration not stated)
5: COC(=O)CN(C#N)c1nc(N(C)C)nc(N(C)C)n1
6: O=C1NC(=O)C2(CCC(C(=O)O)C2)N1 (configuration not stated)
7: COc1ccc(C(=O)Nc2ncc3c(n2)CC(C)CC3=O)cc1 (configuration not stated)
8: O=C(c1ccco1)N1CCN(C2c3ccccc3-c3ccccc32)CC1

Assay by compound,1,2,3,4,5,6,7,8
Arbovirus inh,1,-8,x,7,0,-1,2,x
Mtb H37Rv,6%,2%,3%,-11%,-2%,0%,0%,x
Mtb betalactam,-7,3,-2,4,100,-13,-1,7
YopH inh,x,4,-13,x,x,21,x,x
RecA intein inh,1.0,-1.3,-1.2,-1.8,4.3,-1.9,2.1,11

# Two records picked at random from those above, as already listed:
1: COc1ccc(-n2nc(C(=O)NCC(=O)NCC3COc4ccccc4O3)c3ccccc3c2=O)cc1OC (configuration not stated)
2: Cc1ccc2cc(CN(Cc3cccs3)Cc3nnnn3CC3CCCO3)c(=O)[nH]c2c1 (configuration not stated)

Assay by compound,1,2
Arbovirus inh,1,-8
Mtb H37Rv,6%,2%
Mtb betalactam,-7,3
YopH inh,x,4
RecA intein inh,1.0,-1.3

# Other structures follow.
9: COC(=O)CCN1CCC(C(N)=O)CC1
10: CSc1nc(Cc2ccccc2)nc2ccccc12
11: COc1ccccc1CNC(=O)c1c(O)c2cc(OC)c(OC)cc2[nH]c1=O
12: COc1cc(O)cc2occ(-c3ccc(O)cc3)c(=O)c12
13: Cc1cc(C(=O)COC(=O)c2ccc([N+](=O)[O-])o2)c(C)n1CC1CCCO1 (configuration not stated)
14: O=C(NCC1CCCO1)c1cc(S(=O)(=O)N2CCOCC2)ccc1Cl (configuration not stated)
15: Nc1nnc(CC(=O)N/N=C/c2ccccc2OCc2ccccc2F)s1
16: CC1=NN(C(=O)CCc2ccccc2O)C(O)(C(F)(F)F)C1 (configuration not stated)

Assay by compound,9,10,11,12,13,14,15,16
Arbovirus inh,0,-4,-13,4,-3,x,x,13
Mtb H37Rv,4%,-1%,8%,-5%,10%,x,1%,-5%
Mtb betalactam,u,10,9,-1,100,-8,7,-1
YopH inh,3,x,-41,x,x,x,x,-24
RecA intein inh,-2.9,x,-2.3,-3.7,x,0.8,1.1,0.8

17: Cc1ccc(NC(=O)COC(=O)COc2ccc(Cl)cc2)c([N+](=O)[O-])c1
18: O=C(CNC(=O)c1cccs1)NCC(=O)OCc1ccc(Cl)cc1
19: N#Cc1ccc(C23CC4(C2)[C@H](CN(Cc2ccc(-c5ccccc5)cc2)[C@@H]4c2ccccc2)C3c2ccc(Cl)nc2)cc1 (some centres not stated)
20: N#Cc1cn(CC(=O)NCCc2c[nH]c3ccccc23)c2ccccc12
21: CCOc1ccc(-c2nnc(N)o2)cc1
22: COc1ccc(NC(=O)c2cn(CCC#N)nc2-c2cccs2)cc1
23: CC(=O)Nc1ccc(S(=O)(=O)N(C)CC(=O)Nc2ccc(Br)cc2F)cc1
24: CCN1CCN(C(=O)c2cc3c(=O)n(C)c4ccccc4c3n2C)CC1

Assay by compound,17,18,19,20,21,22,23,24
Arbovirus inh,1,0,x,7,1,-5,x,-1
Mtb H37Rv,-7%,-3%,-8%,3%,58µM*,8%,x,-7%
Mtb betalactam,9,0,11,10,93,-2,-10,-5
YopH inh,-26,-3,x,-34,-38,-25,x,-26
RecA intein inh,1.1,2.3,2.0,-1.5,-0.9,-0.1,-0.5,-6.4

25: Cc1ccc(C)c2c1c1ccccc1n2C
26: CCOc1ccc(S(=O)(=O)N2CCN(C(=O)c3ccc(-n4cncn4)c([N+](=O)[O-])c3)CC2)cc1
27: CCC(CC)NC(=O)CCCSc1nc2ccccc2[nH]1
28: CCN(CC)S(=O)(=O)c1ccc(OC)c(NC(=O)/C=C/c2ccco2)c1
29: CCN(CC)S(=O)(=O)c1ccc(S(=O)(=O)N(CC(=O)Nc2ccccc2)Cc2ccco2)cc1
30: Cc1nn(C)c(Oc2cccc(C(F)(F)F)c2)c1C#N
31: CC(NC(=O)COC(=O)c1ccc2c(c1)S(=O)(=O)N=C1CCCCCN12)C12CC3CC(CC(C3)C1)C2 (configuration not stated)
32: CCN(CC)S(=O)(=O)c1ccc(OC)c(NC(=O)c2ccc(-n3cncn3)c([N+](=O)[O-])c2)c1

Assay by compound,25,26,27,28,29,30,31,32
Arbovirus inh,x,x,-3,x,-4,1,-6,x
Mtb H37Rv,-7%,x,3%,4%,2%,2%,11%,x
Mtb betalactam,1,0,-1,-2,3,2,-6,-3
YopH inh,x,x,x,x,-25,x,-30,x
RecA intein inh,2.3,-0.4,0.4,1.2,4.9,-0.3,-3.5,-2.4

33: CN1C(=O)COc2c(C(=O)NC3CN4CCC3CC4)cc(Cl)cc21 (configuration not stated)
34: Clc1ccc(CN2C3=NCCCN3c3ccccc32)cc1Cl
35: CCCCc1c(C)nn(-c2nnc3c4ccccc4n(C)c3n2)c1C
36: CCC1(CC)C(=O)NC(=O)NC1=Nc1ccccc1
37: OC(CNCC1CCCO1)Cn1c2ccc(Cl)cc2c2cc(Cl)ccc21 (configuration not stated)
38: Cc1ccc(-c2nnc(SCC(=O)N/N=C/c3ccc(C)s3)n2-c2ccc(C)cc2)cc1
39: O=c1[nH][nH]c(-c2ccccc2O)c1C(C[N+](=O)[O-])c1ccccc1 (configuration not stated)
40: Cc1cc(C)c(NC(=O)c2ccc[n+](Cc3ccc([N+](=O)[O-])cc3)c2)c(C)c1

Assay by compound,33,34,35,36,37,38,39,40
Arbovirus inh,11,-23,-28,0,-31,-11,1,-4
Mtb H37Rv,-3%&2%,3%,x,1%,u,11%,7%,8%
Mtb betalactam,-1,0,15,-1,100,-5,55,-6
YopH inh,x,x,-36,-24,9,-32,-33,15
RecA intein inh,-2.0,1.6,3.1,-2.5,3.2,-0.8,6.4,-0.8

41: CCOCCCNC(=O)c1c(N)n(-c2ccc3c(c2)OCO3)c2nc3ccccc3nc12
42: Cc1cc(C)nc(Nc2n[nH]c(-c3ccc(N)cc3)n2)n1
43: COc1ccccc1N=NC1=C(O)CC(C)(C)CC1=O
44: CNS(=O)(=O)c1cccc(C(=O)OCC(=O)/C=C2/N(C)c3ccccc3C2(C)C)c1
45: O=C(CSc1nncn1-c1ccccc1)c1c[nH]c2ccccc12
46: CCCN1C(=O)C2(SC(NC(C)=O)=NN2C(C)=O)c2cc(C)ccc21 (configuration not stated)
47: Cc1ccc(C(=O)NC2CCN(C(=O)Nc3ccccc3Cl)CC2)cc1
48: CC1(C)CC(=O)C(C(C2=C(O)CC(C)(C)CC2=O)c2ccco2)C(=O)C1 (configuration not stated)

Assay by compound,41,42,43,44,45,46,47,48
Arbovirus inh,x,3,-7,5,2,4,x,10
Mtb H37Rv,7%,-3%,-1%,1%,1%,-3%,x,-7%
Mtb betalactam,1,-8,-1,4,-7,-1,-4,14
YopH inh,x,0,-20,-17,x,x,x,-18
RecA intein inh,-25,x,x,1.8,2.9,5.7,2.8,-2.7

# Profiles, looked up by structure:
# O=C(CSc1nncn1-c1ccccc1)c1c[nH]c2ccccc12 is entered as Arbovirus inh: 2; Mtb H37Rv: 1%; Mtb betalactam: -7; YopH inh: x; RecA intein inh: 2.9
# CCOCCCNC(=O)c1c(N)n(-c2ccc3c(c2)OCO3)c2nc3ccccc3nc12 is entered as Arbovirus inh: x; Mtb H37Rv: 7%; Mtb betalactam: 1; YopH inh: x; RecA intein inh: -25
# Cc1ccc(C(=O)NC2CCN(C(=O)Nc3ccccc3Cl)CC2)cc1 is entered as Arbovirus inh: x; Mtb H37Rv: x; Mtb betalactam: -4; YopH inh: x; RecA intein inh: 2.8

# Further entries follow:
49: CCn1ncc(S(=O)(=O)NCc2ccco2)c1C
50: CSc1ccc(Cl)c(C(=O)N2CCOc3ccccc32)c1
51: COC(=O)CSc1nc2c(c(=O)[nH]c(=O)n2C)n1CCC(C)C
52: COc1cc(CC(C#N)(CO)c2nc3ccccc3[nH]2)ccc1OC(F)F (configuration not stated)
53: CN1CCN(C(CNC(=O)C(=O)Nc2ccc3c(c2)OCCO3)c2ccc(F)cc2)CC1 (configuration not stated)
54: O=C(O)c1cc(-c2ccco2)nn1-c1ccc(Cl)cc1
55: Cc1cc(C(C)(C)C)cc(S(=O)(=O)NCC(=O)O)c1C
56: CCOc1ccc(NC(=O)C2CC(=O)N(c3ccccc3F)C2)cc1 (configuration not stated)

Assay by compound,49,50,51,52,53,54,55,56
Arbovirus inh,x,x,7,0,x,4,5,x
Mtb H37Rv,x,x,-4%,1%,x,-2%,-5%,x
Mtb betalactam,-7,-4,-24,-3,0,x,-15,-12
YopH inh,x,x,-23,-15,x,x,-57,x
RecA intein inh,-0.3,2.4,-5.2,0.8,-1.0,11,-1.2,0.6

57: Cc1nn(S(=O)(=O)c2ccccc2)c(C)c1S(=O)(=O)N1CCC(C)CC1
58: CCCCn1nc2cc(C(=O)NCc3cc(C(F)(F)F)cc(C(F)(F)F)c3)ccc2c1OC
59: CCn1c2ccccc2c2nnc(SCc3ccccc3)nc21
60: O=C1CCCCCN1CP(=O)(O)CN1CCCCCC1=O
61: Nc1nnc(CCC2CCCCC2)s1
62: Cc1ccc(C(=O)OCC(=O)Nc2cc(S(C)(=O)=O)ccc2Cl)cc1S(=O)(=O)N1CCCCC1
63: COc1cccc(N(CC(=O)NC2CCCC2)C(=O)Cn2nnc(-c3ccc(C)cc3)n2)c1
64: CCC(C(=O)NCCN1CCN(C)CC1)n1c(C)c2cnn(-c3ccccc3)c(=O)c2c1C (configuration not stated)

Assay by compound,57,58,59,60,61,62,63,64
Arbovirus inh,x,-6,11,x,3,x,-4,4
Mtb H37Rv,x,-5%,14%,-7%,-5%,x,9%,3%
Mtb betalactam,-3,1,-2,2,-4,-4,u,-15
YopH inh,x,-28,-26,x,-24,x,-3,-31
RecA intein inh,0.4,0.4,-2.0,-1.9,-2.4,4.9,-4.4,4.1

65: CC1CCN(S(=O)(=O)c2ccc(S(=O)(=O)NCC3COCCO3)cc2)CC1 (configuration not stated)
66: COc1cc(C(=O)NC(C)c2ccc(-n3ccnc3)cc2)cc(OC)c1C (configuration not stated)
67: CC(CCN1C(Nc2ccccc2)=NC[C@@H]1C)c1ccccc1 (some centres not stated)
68: COc1ccc(S(=O)CC(=O)Nc2ccc(Cl)cc2Cl)cc1 (configuration not stated)
69: CCS(=O)(=O)c1ccc2oc(SCC(=O)NCCc3ccccc3)nc2c1
70: COc1ccc(-n2c(Cc3cccn3C)nnc2SCC(=O)Nc2cccc(C)c2C)cc1
71: CCOc1ccc(NC(=O)C2CC=CCC2C(=O)O)cc1 (configuration not stated)
72: CCOC(=O)N1CCN(C(=O)COc2ccccc2OC)CC1

Assay by compound,65,66,67,68,69,70,71,72
Arbovirus inh,5,x,x,-1,-1,2,2,11
Mtb H37Rv,0%,x,x,0%,3%,3%,u,2%
Mtb betalactam,-10,-3,1,-4,-3,6,81,-7
YopH inh,0,x,x,x,x,-1,-26,-35
RecA intein inh,1.9,1.5,-1.1,-2.0,0.7,5.5,-0.1,-0.9

73: COc1cccc(COc2cc3ccccc3nc2C)c1
74: CCOC(=O)c1[nH]c(CSc2nnc(-c3ccc(OC)cc3)o2)c(C(=O)OCC)c1C
75: O=C(COC(=O)c1cc([N+](=O)[O-])ccc1NCc1ccccc1Cl)NCC(F)(F)F
76: O=C(CN1CCCC1)Nc1c(Cl)cccc1Cl
77: Cc1cccc(NC(=O)COc2ccc(Br)cc2/C=N/O)c1
78: Fc1ccc(CN2C3=NCCN3c3ccccc32)cc1
79: O=C(O)c1ccccc1/C=N/Nc1nc(N2CCCCC2)nc(N2CCCCC2)n1
80: CN(CCc1ccccn1)C(=O)CCC1CCCN(C(=O)c2cccc(N(C)C)c2)C1 (configuration not stated)
81: CC(CC(=O)O)CC(=O)Nc1cc(C(F)(F)F)cc(C(F)(F)F)c1 (configuration not stated)
82: O=C(O)c1ccc(CSc2nnc(Cc3ccccc3)o2)cc1

Assay by compound,73,74,75,76,77,78,79,80,81,82
Arbovirus inh,6,-4,-8,x,4,x,-1,x,x,7
Mtb H37Rv,11%,4%,43%,x,13%,1%,14%,x,1%,-1%
Mtb betalactam,5,-7,6,-3,-1,8,-6,-1,-4,9
YopH inh,-29,-20,-44,x,-28,x,x,x,x,-32
RecA intein inh,4.3,1.3,11,1.4,-0.4,-0.9,-2.9,-8.3,1.4,-4.0

# Only part of the results is shown. The share of hits here may be higher or lower than overall.
